VDR inh: Inhibitors of the vitamin D receptor (VDR): qHTS. VDR-SRC2-3 peptide fluorescence polarization, 2 h. 0.93% of 400,000 active. Potency, µM, for the others: max response, negative = inhibition, most hits filed as inhibitors. AID 504847, 2011; active means well fitted inhibition curve with a large enough effect; inconclusive means small, poorly fitted or top-dose-only effect, or another doubt; inactive means no such curve, though single readings can be large or run the other way; further: series mostly up to about 120 µM
Target sequence (P11473 whole entry, looked up): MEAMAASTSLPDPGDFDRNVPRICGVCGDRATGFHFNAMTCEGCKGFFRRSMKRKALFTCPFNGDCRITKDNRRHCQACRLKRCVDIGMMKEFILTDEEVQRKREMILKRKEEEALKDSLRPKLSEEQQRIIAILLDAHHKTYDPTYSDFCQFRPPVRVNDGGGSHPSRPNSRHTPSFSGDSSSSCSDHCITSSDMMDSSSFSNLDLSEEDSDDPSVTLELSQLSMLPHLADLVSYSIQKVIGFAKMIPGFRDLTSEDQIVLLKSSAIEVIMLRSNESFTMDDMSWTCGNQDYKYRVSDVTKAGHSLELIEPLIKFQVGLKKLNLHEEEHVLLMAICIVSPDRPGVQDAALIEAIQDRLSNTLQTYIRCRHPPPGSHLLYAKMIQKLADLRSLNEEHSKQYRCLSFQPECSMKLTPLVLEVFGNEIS
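FP read-out; VDR + SRC2-3 coactivator peptide; 23 nl compound by pintool; 2 h RT incubation; reagents held at 4 deg C, protected from light.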
* = called active by the depositor; ? = inconclusive; & = joins results of further samples. On the % scale 0 is the no-effect control and ±100 the full control effect; potency means the concentration at half of the fitted maximal effect.

VDR inh,smiles
10%,COC(=O)[C@H](CCCN=C(N)N)NC(=O)CCCc1c(-c2ccccc2)[nH]c2c(F)cc(F)cc12
1%,CCCCNc1nc2cccnc2s1
-10%,Cc1cc(NC(=O)/C=C/c2ccc(Cl)cc2)no1
-14%,CSc1ccc(S(=O)(=O)NCC(=O)OCC(=O)NCC2CCCO2)cc1[N+](=O)[O-] (stereo unspecified)
0%,COc1cc(-c2nc(CN3CCCCC3CCNC(C)=O)c(C)o2)ccc1F (stereo unspecified)
-11%,Cc1ccc(S(=O)(=O)N(C)c2ccc(C(=O)Nc3ccccc3C(=O)N3CCOCC3)cc2)cc1
-3%,CC1=C(/C=C/C(C)=C/C=C/C(C)=C/C=C/C=C(C)/C=C/C=C(C)/C=C/C2=C(C)CCCC2(C)C)C(C)(C)CCC1
-5%,COc1cccc2c(=O)n(CC(=O)NC3CCCCC3)ccc12
15%,Cc1ccc(C(=O)Nc2ccc3c(c2)N(C)C(=O)c2ccccc2S3)cc1
-16%,CCS(=O)(=O)n1c(Cc2cccs2)nc2ccccc21
-4%,CCNc1nc(NC(C)(C)C)nc(N(CC)n2cnnc2)n1
-6%,CNC[C@H]1Oc2c(NS(=O)(=O)c3ccc(OC)cc3)cccc2C(=O)N([C@H](C)CO)C[C@@H]1C
?,CCCSc1nnc(NC(=O)c2sc3nc(-c4cccs4)ccc3c2N)s1
9%,COc1c(C)cccc1C(=O)Nc1ccc(Cl)c(-c2nc3cc(C)ccc3o2)c1
1%,Cc1ccc(CNC(=O)C2CCN(S(=O)(=O)c3ccc4c(c3)OCCCO4)CC2)cc1
7%,COC(=O)c1ccc(CN(c2ccccc2OC)S(=O)(=O)c2cccs2)o1
-19%,COc1ccc(-c2csc(N3C(=O)C4C5c6ccccc6C(c6ccccc65)C4C3=O)n2)cc1 (stereo unspecified)
11%,O=C(NCCCN1CCN(Cc2ccccc2)CC1)C1CCN(c2nnc(-n3cccc3)s2)CC1
-9%,Cc1ccc(S(=O)(=O)N2CCN(c3ccc(N4CCOCC4)nn3)CC2)cc1[N+](=O)[O-]
?,CC12CCC(=O)N1C(C(=O)NCc1ccccc1Cl)CS2 (stereo unspecified)
16%,O=C(CSc1nnc(-c2ccccc2)n1-c1ccccc1)N1c2ccccc2Sc2ccccc21
-7%,COC(=O)C1=C(C)NC(C)=C(C(=O)OC)C1C(=O)OCC(=O)N1CCCCC1C (stereo unspecified)
-6%,CCN(CC)NC(=O)Nc1ccccc1
-9%,C=C(C)Cn1c(CCn2c3ccccc3c3ccccc32)n[nH]c1=S
5%,O=[N+]([O-])c1cccc(CN2CCN(Cc3ccco3)CC2)c1
-14%,Oc1c(C(Nc2ccccn2)c2ccccn2)ccc2cccnc12 (stereo unspecified)
-7%,CC(C)Oc1ccc(C(=O)N(Cc2ccco2)Cc2cccs2)cc1
-12%,CCn1c(=O)c2cc(C(=O)NCCc3cccc(C)c3)sc2c2ccccc21
4%,O=C(COc1ccc2ccccc2c1)NNC(=O)c1cccs1
19%,CCCn1c(=O)c2ccccc2n2c(SCCOc3ccc(OC)cc3)nnc12
-4%,COc1cc(S(=O)(=O)n2nc(C)cc2C)ccc1Cl
-6%,Cc1cc(OCC(=O)N(C)Cc2ccccc2)ccc1Br
11%,COc1ccc(C2(c3ccc(OC)cc3)NC(=O)N(CC(=O)NC3(C#N)CCCCC3)C2=O)cc1
-15%,O=S(=O)(c1ccc(Cl)cc1)N1CCN(c2nc(Nc3cc(Cl)ccc3O)nc3ccccc23)CC1
28µM*,CC(=O)Oc1ccc2occ(/C=N/c3cc(=O)[nH]c(=S)[nH]3)c(=O)c2c1
-7%,Cc1ccc(CCNC(=O)c2nn(C)c3c2CSc2ccccc2-3)cc1
-13%,Cn1c(Cc2cccc3ccccc23)nnc1SCc1ccc([N+](=O)[O-])cc1
-12%,COc1ccc(CNC(=O)c2cc(=O)c3c(C)cc(C)cc3o2)cc1
0%,Cc1cccn2c(=O)nc(SCC(=O)N3CCOCC3)nc12
5%,CCc1ccc(N(CC(=O)NCc2ccco2)C(=O)CCC(=O)Nc2ccccn2)cc1
7%,CC(C)(C)c1cc(C(F)(F)F)nc(SCCCNC(=O)c2ccco2)n1
-7%,COc1ccc(NC2CCCN(C(=O)c3cccs3)C2)cc1 (stereo unspecified)
0%,Cc1ccc(CNc2oc(-c3ccc(COc4ccc(Cl)cc4)o3)nc2C#N)cc1
-6%,CC(Cc1ccccc1)NC(=O)CSc1nc2nc3c(cc2c(=O)n1-c1ccccc1)COC(C)(C)C3 (stereo unspecified)
?,CC(=NNC(=S)Nc1cccc(C)c1)c1ccccn1
5%,COC(=O)c1cn(NC(=O)c2ccc(F)cc2)c(=O)c2ccccc12
?,CC1(C)CC(=O)C=C(NC2=CC3OC(c4ccccc4)OCC3OC2=O)C1 (stereo unspecified)
?,Cc1c(C(=O)N2CCOCC2)c(S(=O)(=O)Nc2ccc(Br)cc2F)c(C)n1C
1%,Cc1cccc(C(=O)N2CCC(=O)N(C(COCc3ccccc3)Cc3ccccc3)CC2)c1 (stereo unspecified)
-2%,COc1ccc(/C=C/c2nnc(NC(=O)COc3ccc(C)cc3)s2)cc1

Following part
VDR inh,smiles
?,CC(=O)[C@H](CC(C)C)NC(=O)[C@@H](CC(C)C)NC(=O)[C@H](CC(C)C)NC(=O)OCc1ccccc1
-1%,COc1cccc(C(=O)NNC(=O)c2cccc3ccccc23)c1
-7%,CN(C)c1ccc(/C=N/NC(=O)c2ccc(Cn3cc(Br)cn3)o2)cc1
8%,Cc1ccc(S(=O)(=O)NCc2nc(-c3ccccc3)no2)cc1
8%,CCN(CC)CCN(C(=O)/C=C/c1cccs1)c1nc2ccc(C)cc2s1
13%,CCOC(=O)c1nnn(-c2ccc(OC)cc2)c1N
-7%&5%,NCc1ccccc1
12%,CCC(C)Oc1cccc(C(=O)Nc2ccccc2N2CCOCC2)c1 (stereo unspecified)
6%,CCOC(=O)N1CCC(N(CCN(C)C)C(=S)Nc2cc(C)ccc2C)CC1
19%,O=C(c1cccc(S(=O)(=O)Nc2ccccc2Cl)c1)N1CCN(c2ccccc2O)CC1
-8%,O=C(NCC1CCCO1)C1CCN(S(=O)(=O)c2ccccc2)CC1 (stereo unspecified)
-5%,CN(C)S(=O)(=O)c1ccc(Cl)c(C(=O)NCC2CCCCC2)c1
2%,COc1ccc(/C=C2\CCc3ccccc3C2=O)cc1CN1CCOCC1
-5%,CCCN(C(=O)c1ccco1)c1nnc(-c2ccccc2C)s1
-13%,COc1ccccc1CNS(=O)(=O)c1ccc(Cl)s1
-28%,O=C(O)C1CC=CCC1C(=O)N1CCN(c2nc(-c3ccccc3Cl)c3cc(Br)ccc3n2)CC1 (stereo unspecified)
-10%,Cc1nc2ccccc2n1CC(=O)NN
5%,CC(=O)Cn1cnc2sc(-c3ccccc3)cc2c1=O
8%,Cc1cc(C)cc(-n2ncc3c2CCCC3NC(=O)c2csnn2)c1 (stereo unspecified)
-7%,CC1=NN(Cc2ccccc2)C(=O)C1C(c1ccncc1)C(C#N)C#N (stereo unspecified)
-18%,CCNC(=O)N1CCCC(C(=O)c2ccc(-c3ccccc3)cc2)C1 (stereo unspecified)
-11%,Cc1cccc2c1cnn2C(=O)CCC(=O)N1CCC(C)CC1
8%,O=C(c1ccoc1)N1CCCC(N2CCN(c3ccc(F)cc3)CC2)C1 (stereo unspecified)
9%,N/C(=N\OC(=O)Cc1ccc(Cl)cc1)c1cccnc1
?,Cc1cc2c3c([nH]c2cc1S(=O)(=O)NCc1ccc(CN2CCCCCC2)o1)CC(C)(C)CC3=O
-13%,COc1ccc(NC(=O)c2ccc(S(=O)(=O)N3CCOCC3)o2)cc1
-6%,O=C(Nc1ccc(F)cc1)C1CCN(c2nc3ccccc3n3cccc23)CC1
-9%,Cc1nn(CC(=O)NCCCc2ccccc2)c(=O)c2cc3occc3n12
-16%,CCc1nc(SCC(=O)NCCc2ccccc2)c2c(=O)n(C)c(=O)n(C)c2n1
-9%,O=C(/C=C\Nc1ccccn1)c1ccc(Cl)cc1
-6%,O=C(CCC(=O)N1CCN(Cc2ccccc2)CC1)Nc1nnc(C2CCCCC2)s1
0%,COC(=O)c1ccc(/C=N/N2CCN(Cc3ccc(C)cc3C)CC2)cc1
?,CCN(CC)Cc1cc(Nc2c3ccccc3nc3c4ccccc4n(C)c23)cc(CN(CC)CC)c1O
50µM*,O=c1cc(CO)oc(C(Nc2cccc(C(F)(F)F)c2)c2ccccn2)c1O (stereo unspecified)
-10%,CCCCNC(=O)c1ccc(NC(=O)C2CCCO2)cc1 (stereo unspecified)
0%,CCN(CC(=O)Nc1cc(Cl)ccc1C)C(=O)c1ccc(N2CCCC2=O)cc1
-10%,CC1=C(C(=O)c2ccccc2)C(c2ccc(O)cc2)NC(=S)N1 (stereo unspecified)
3%,C=CCN1N=C(c2ccc(Cl)s2)CSC1=O
-16%,COc1ccc(CC(=O)Nc2cccc(S(=O)(=O)N3CCCCCC3)c2)cc1OC
-10%,COc1cc2c(cc1OC)C1CCC3=C([C@H](C)OC3=O)N1CC2 (stereo partly specified)
-14%,CN(CCS(=O)(=O)c1ccc(Cl)cc1)Cc1cccnc1
-4%&10%,CC(=O)c1cccc(NC(=O)CCS(=O)(=O)c2ccc(Br)s2)c1
-2%,CCN(CC)S(=O)(=O)c1ccc(C(=O)OCCN2C(=O)CCC2=O)cc1
5%,O=C(CSc1nnc(Cn2c(=O)sc3ccccc32)n1CCc1ccccc1)N1CCOCC1
10%,Cc1ccc(C)c(NC(=O)C2CCC(C)(C(=O)O)C2(C)C)c1 (stereo unspecified)
0%,CC(=O)c1ccc(S(=O)(=O)N(C)C(C)CCc2ccco2)cc1 (stereo unspecified)
-28%,CC(C)Sc1nc(-c2ccccc2)cc(=O)[nH]1
3%,CCc1ccccc1NC(=O)Cn1c(=O)c2cccn2c2ccc(F)cc21
-5%,Cc1cccc(NC(=O)CSCc2nc3c(nnn3Cc3ccc(F)cc3)c(=O)[nH]2)c1C
-8%,COc1ccccc1-c1c(C)oc2c(CN3CCN(CCO)CC3)c(O)ccc2c1=O

Continuation:
VDR inh,smiles
11%,COc1ccccc1C(=O)Nc1ccccc1C(=O)OCc1cc(=O)n2ccsc2n1
0%,COc1cc(C)c(C(C)C)cc1S(=O)(=O)n1ccnc1
11%,CCOC(=O)Nc1cc(C(=O)OC)cc(C(=O)OC)c1
-14%,Cc1cc(C(=O)Nc2cccc(S(=O)(=O)N3CCCC3)c2)c2ccccc2n1
-5%,Cc1cc(NC(=O)COC(=O)c2ccccc2S(=O)(=O)N(C)c2ccccc2)no1
9%,CCOc1cc(OCC)cc(C(=O)O)c1
-11%,O=C1CCCC/C=C\C[C@H](CC(=O)N(CCO)Cc2ccccc2)C(=O)N[C@@H](c2ccccc2)CO1
-7%,CCCCCOc1ccc2oc(=O)c3c(c2c1)CCCN3C(=O)CN1CCCC(C(=O)OCC)C1 (stereo unspecified)
-15%,NC1=NC(=O)C(Cc2ccc(F)cc2)S1 (stereo unspecified)
-5%,CCn1cc(Cl)c(C(=O)Nc2cccc(CN3CCOCC3)c2)n1
-8%,CC(=O)Nc1ccc(S(=O)(=O)NCCC(=O)OCc2nc(N)nc(Nc3ccccc3C)n2)cc1
-5%,COc1cccc(NC(=O)c2c(C)cc(C)cc2CC(C)(C)C(=O)O)c1
5%,CC(Sc1nnc(COc2ccc(Cl)cc2)n1-c1ccccc1)C(=O)O (stereo unspecified)
-1%,CCCN1CCC(NC(=O)Nc2cc(Cl)ccc2OC)CC1
-10%,CC1CCN(c2ccc(NC(=O)c3ccccc3[N+](=O)[O-])cc2)CC1
2%,CCc1ccc(N(CC(=O)NC2CCCC2)S(=O)(=O)c2c(C)noc2C)cc1
14%,O=C(c1cccnc1)N1CCN(c2c(Cl)cccc2[N+](=O)[O-])CC1
4%,COc1ccccc1-c1nc2n(n1)C(c1cccs1)C(C(=O)Nc1cccnc1)=C(C)N2 (stereo unspecified)
11%,CC(=O)Cc1nsc(Nc2cccc(C)c2)n1
2%,O=C(COC(=O)c1ccc(-c2ccccc2)cc1)Nc1ccccc1-c1ccccc1
6%,CCOC(=O)c1ccc(NC(=O)CCNS(=O)(=O)c2ccc3c(c2)oc(=O)n3C)cc1
-8%,O=C(Nc1c2c(nc3ccccc13)CCCC2)c1ccccc1Cl
-7%,CN(Cc1ccc(OC(F)F)cc1)C(=O)c1ccccc1Sc1ccccc1C#N
-1%,C=CCn1c(SCC(=O)NC(=O)NCC(C)C)nnc1C1CCCCC1
6%,CS(=O)(=O)c1ccc2nc(NC(=O)c3ccc(S(=O)(=O)NCC4CCCO4)cc3)sc2c1 (stereo unspecified)

Taken from above, 15 compounds:
VDR inh,smiles
-13%,COc1ccc(NC(=O)c2ccc(S(=O)(=O)N3CCOCC3)o2)cc1
-6%,O=C(Nc1ccc(F)cc1)C1CCN(c2nc3ccccc3n3cccc23)CC1
-9%,Cc1nn(CC(=O)NCCCc2ccccc2)c(=O)c2cc3occc3n12
-16%,CCc1nc(SCC(=O)NCCc2ccccc2)c2c(=O)n(C)c(=O)n(C)c2n1
-9%,O=C(/C=C\Nc1ccccn1)c1ccc(Cl)cc1
-6%,O=C(CCC(=O)N1CCN(Cc2ccccc2)CC1)Nc1nnc(C2CCCCC2)s1
0%,COC(=O)c1ccc(/C=N/N2CCN(Cc3ccc(C)cc3C)CC2)cc1
?,CCN(CC)Cc1cc(Nc2c3ccccc3nc3c4ccccc4n(C)c23)cc(CN(CC)CC)c1O
50µM*,O=c1cc(CO)oc(C(Nc2cccc(C(F)(F)F)c2)c2ccccn2)c1O (stereo unspecified)
-10%,CCCCNC(=O)c1ccc(NC(=O)C2CCCO2)cc1 (stereo unspecified)
0%,CCN(CC(=O)Nc1cc(Cl)ccc1C)C(=O)c1ccc(N2CCCC2=O)cc1
-10%,CC1=C(C(=O)c2ccccc2)C(c2ccc(O)cc2)NC(=S)N1 (stereo unspecified)
3%,C=CCN1N=C(c2ccc(Cl)s2)CSC1=O
-16%,COc1ccc(CC(=O)Nc2cccc(S(=O)(=O)N3CCCCCC3)c2)cc1OC
-10%,COc1cc2c(cc1OC)C1CCC3=C([C@H](C)OC3=O)N1CC2 (stereo partly specified)

A portion of the library; rates above refer to the full screens.
